Source: PubChem BioAssay
Bead autofluor = flagged as autofluorescent in microsphere protease counterscreen; compound autofluorescence counterscreen, microsphere flow cytometry; stronger effect = higher value; fluorescence intensity (concentration not given with the values); 3.1% of 360,000 active; AID 624483;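 active = at least 3 SD above the mean of all compounds, about 16000 in these data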;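 note: 100 nL of 1 mM stock went into each well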
ugtP null kill = growth inhibition of ugtP-null S. aureus, primary screen, RN4220 ugtP deletion, OD600; 16 h; some inactives read as strong as hits; growth inhibition, % (test concentration not listed); 0.54% of 330,000 active;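 active = z-score under -3 and OD600 up to 0.15 on both plates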;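 note: plate controls were untreated wells for no effect and antibiotic for full effect; wells of about 80 µL received 100 nL stock; the first replicate is given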
Mtb hypoxia inh = PubChem AID 1159583 | M. tuberculosis hypoxia-regulated fluorescent reporter, fluorescence | fluorescence inhibition, % (no concentration beside the values) | 0.1% of 300,000 active;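 active = 35 to 45% if threefold the growth effect, above 45% if 1.5-fold the growth effect; inactive = the rest, general growth blockers included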;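 note: wells of about 50 µL received 100 nL stock; 0% = vehicle wells and 100% = reference inhibitor wells; whole bacteria with a GFP reporter of the hypoxia response; strong numbers were not always called active; many hits fall short of the cut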
Sa RN4220 lethal = growth inhibition of S. aureus RN4220, primary screen, OD600. inhibition, % (no concentration beside the values). 16 h. 0.33% of 330,000 active;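 active = z-score of -3 or lower and OD600 up to 0.18 on both plates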;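 note: plate controls were untreated cells for no effect and reference antibiotic for full effect; stock transfer was 100 nL into about 80 µL; one replicate is shown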
BJeLR viability = MLPCN primary cell-based screen for lethality selective to Ras in HRASV12 cells; inhibition, % (concentration not given with the values); 0.17% of 300,000 active; AID 1554, 2009; BJeLR (HRASV12) viability, CellTiter-Glo ATP luminescence, 48 h; reference of the scale not given here;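 active = replicate mean above 50%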;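 note: 50 nL library stock added to about 25 µL; numbers are from one replicate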
PrP 5UTR inh = inhibition of PrP 5' UTR reporter expression. cell-based PrP 5' UTR mRNA reporter, plate reader. inhibition, % (concentration not given with the values). 0.35% of 340,000 active;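 active = every replicate at 50% or more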;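 note: 0 = median of the neutral control wells; tested in H4 reporter cells; numbers are from one replicate; inactives centre near -14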
Mtb hypoxia inh growth = second read-out of Mtb hypoxia inh, no call of its own (marks repeat the call); growth inhibition, %; measured here: M. tuberculosis growth (absorbance);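 0% = vehicle and 100% = reference antibiotic; read after six days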
Starred values were filed as active, the others as inactive; x = not tested or not shown.

SMILES	Bead autofluor	ugtP null kill	Mtb hypoxia inh	Mtb hypoxia inh growth	Sa RN4220 lethal	BJeLR viability	PrP 5UTR inh
CC(=O)c1cccc(NC(=O)CN2C(=S)NC(C)(C)CC2C)c1 (stereo not given)	3840	3	-7	-6	1.6	-4	-14
Cc1nn(Cc2ccccc2)c(C)c1C=NNC(=O)c1ccccc1O	x	3	10	4	0.6	x	x
CC1CCCC(C)N1N=C/C=C/c1ccccc1[N+](=O)[O-] (stereo not given)	x	8	5	9	5.9	x	x
Cc1cccc(C)c1OCc1nnc(SCC(=O)Nc2nccs2)o1	5818	0	x	x	-1.8	-4	-15
CCCC(c1nnnn1Cc1cccs1)N1CCN(C)CC1 (stereo not given)	3399	-4	4	8	8.6	1	4
O=C(COc1ccc(Br)cc1)NN1C(=O)c2ccccc2C1=O	x	0	8	3	4.0	11	x
CCn1c(SCC(=O)Nc2ccc(N(C)C)cc2)nnc1-c1cccc(C)c1	4075	4	x	x	-4.7	-4	64*
C=CCOc1cccc(C2C(C(=O)c3ccc(C)o3)=C(O)C(=O)N2Cc2ccncc2)c1 (stereo not given)	4053	6	x	x	7.8	0	-14
Cc1cc(C(=O)N/N=C2\CC(=O)c3ccccc32)c(C)n1-c1ccc(F)cc1	3023	x	x	x	x	-8	-14
COc1ccc(C(=O)COC(=O)CCC(=O)c2cccs2)cc1	2499	10	-4	-10	5.9	2	-30
CCOc1ccc(C(c2c(NC(=O)c3ccco3)sc(C)c2C)N2CCOCC2)cc1 (stereo not given)	4093	1	3	7	-1.1	x	-2
COc1ccccc1C(=O)NNC(=O)C1CCCO1 (stereo not given)	3059	-3	2	-6	-2.7	-8	-2
Fc1cc2[nH]c(=S)[nH]c2cc1Cl	5505	8	2	4	2.2	-3	-2
CCn1c(SCC(=O)c2ccccc2)nc2ccccc2c1=O	3792	3	-11	-1	-1.4	-5	-6
Cc1ccc([C@@H]2[C@@H]3C(=O)N(c4ccccc4)C(=O)[C@@H]3[C@]3(C)C(=O)N(Cc4ccc(-c5ccccc5)cc4)CC(=O)N23)o1	3735	x	x	x	x	-2	-23
Cc1cc(C)c(NC(=S)N2CCCC2C(=O)O)c(C)c1 (stereo not given)	2488	8	7	5	-1.3	-4	-6
COC(=O)[C@@H]1C[C@@]2(O)[C@H](O)[C@H](O)[C@H](O)C[C@H]2N1Cc1cc(F)ccc1F	2904	x	x	x	x	6	2
Cc1nnc(SCC(=O)Nc2ccc(O)cc2)c2ccccc12	4331	2	0	-6	-1.6	-7	-7
CNC(=S)NNC(=O)c1sccc1OCc1cccc(C(F)(F)F)c1	4425	3	5	8	1.5	-7	-31
O=C(CSc1ncccn1)NN=Cc1cccc(OC2CSC2)c1	x	0	12	12	-1.7	x	x
Cc1ccc(NC(=O)CN2C(=O)S/C(=C\c3ccccn3)C2=O)cc1	4927	1	8	0	6.7	-1	-31
CC1(O)c2ccccc2C(=O)N1CCc1ccccc1F (stereo not given)	2361	10	x	x	2.6	-4	-58
CC(C)(C)OC(=O)NCCc1nnc(SCC(=O)Nc2cccc(Cl)c2)o1	22287*	2	2	18	3.2	-7	-22
CCOC(=O)/C(=C/Nc1ccccc1)[N+](=O)[O-]	2198	x	x	x	x	-6	-8
CC(=O)N1CCN(C(=O)c2ccc(OC3CCN(CCc4ccccc4)CC3)cc2)CC1	6127	4	2	4	2.6	-1	-31
COc1cc(/C=N/n2c(C)n[nH]c2=S)ccc1OCc1ccc(F)cc1	2421	x	x	x	x	-11	-37
Nc1nonc1-n1nnc(C(=O)N/N=C/c2ccc(F)cc2)c1-c1cccs1	5025	x	x	x	x	-8	-15
Cn1c2ccsc2c2ncn(Cc3ccccc3F)c(=O)c21	3849	1	4	8	1.5	x	-19
NC(=O)COC(=O)c1ccc2noc(-c3ccccc3)c2c1	2670	5	-27	-9	2.4	-3	-23
Nc1nnnn1N=Cc1cc(Cl)ccc1O	x	-8	10	1	-1.8	x	x
CCOC(=O)Cn1cc(/C=C(\C#N)C(=O)N2CCOCC2)c2ccccc21	4808	4	16	10	3.5	-5	-12
S=c1nc(-c2csc3c2CCCC3)[nH][nH]1	4330	-4	-3	-3	6.9	-6	-16
O=C(Nc1ccc(S(=O)(=O)N2CCc3ccccc32)cc1)C(F)(F)F	4364	2	-2	4	5.5	3	-7
CN(C)S(=O)(=O)c1ccc(N2CCCC2)c(C(=O)Nc2ccccc2N2CCOCC2)c1	8592	-1	-1	-5	1.8	x	-31
O=S(=O)(Cc1ccccc1)Nc1ccc(Br)cn1	2698	0	-4	8	5.9	5	4
O=C(CC1C(=O)NCCN1Cc1cccc(F)c1)NC1CCCCCC1 (stereo not given)	5570	5	10	8	1.3	0	-24
CCN(CCCNC(=O)CCCN1C(=O)COc2ccc(C)cc21)c1cccc(C)c1	9621	-6	4	6	4.6	5	-33
OCCN(CCO)c1nc(-c2ccccc2)nc2c1oc1ccccc12	4927	-7	-5	1	15	5	-8
CCC(C(=O)NC1CC1)n1nc(C)c2c(C)n(-c3ccccc3)nc2c1=O (stereo not given)	5368	0	3	6	-0.3	1	-7
CC/C(=N\Nc1ccccc1)c1c(O)[nH]c(=O)[nH]c1=O	x	4	-5	0	1.7	0	-10
CCCc1cc(=O)[nH]c(SCC(=O)NCc2ccc3c(c2)OCO3)n1	4857	9	1	4	4.5	-15	-17
COc1ccccc1OCC(=O)Nc1ccc(N2CCCCC2)cc1	7486	-12	-15	-10	0.6	0	-24
Cn1c(C(=O)N2CCCC(C(=O)NCc3cccs3)C2)cc2sccc21 (stereo not given)	8892	3	6	8	2.7	2	10
COc1ccccc1N1CCN(C(=O)c2ccc3[nH]c(C)c(C)c3c2)CC1	5877	-1	1	-9	0.5	33	32
CN(C)/C(=N\S(=O)(=O)c1ccccc1)c1ccc(Cl)cc1	4006	x	x	x	x	-8	-6
C=CCN(CC=C)C(=O)c1cccc(S(=O)(=O)N2c3ccccc3CC2C)c1 (stereo not given)	4717	12	14	-5	8.5	8	-11
CCCOc1ccc2c(=O)c(-c3cc(C(=O)OC)oc3C)c(C)oc2c1	12909	-5	11	7	1.6	-3	-12
CC1CCCC(C)N1N=Cc1cccc([N+](=O)[O-])c1 (stereo not given)	x	7	13	0	6.3	x	x
COc1ccc(-c2cc(C(=O)NN=C(C)c3cccnc3)c3ccccc3n2)cc1	x	2	-9	2	-0.4	x	x
O=C(Nc1cccnc1)C1(c2ccc(Cl)cc2)CCCC1	16176*	-1	8	19	-0.1	9	-14
O=C(NCc1ccccn1)c1cc(Cl)ccc1OCc1ccccc1	6489	4	3	-1	2.3	9	-23
O=C(c1n[nH]c(=O)c2ccccc12)N1CCOCC1	3216	4	0	14	16	-1	-25
COCCN(C(=O)CC1CCCCC1)c1c(N)n(CC(C)C)c(=O)[nH]c1=O	3098	2	1	-2	2.4	x	-22
O=C1N(c2ccccc2)c2ccccc2C1(O)C(F)(F)F (stereo not given)	3007	6	0	-6	8.4	5	11
COc1ccc(C(=O)/C(C#N)=N/Nc2ccccc2[N+](=O)[O-])cc1	2354	x	x	x	x	37	-37
Cc1ccc(NC(=O)COc2ccc(C=NNC(=O)CSCc3ccccc3)cc2)cc1	x	-9	5	3	-1.5	x	x
COc1ccc(NS(=O)(=O)c2cccc(-c3n[nH]c(=S)n3Cc3ccccc3)c2)cc1	3880	6	5	7	-1.9	14	-18
CCCCCCc1nc(C(N)=O)c2[nH]c(=O)n(-c3ccc(OCC)cc3)c2n1	5639	-4	7	5	4.6	-17	2
Cc1ccc(CNC(=O)CCS(=O)(=O)c2ccc(Br)s2)cc1	3356	2	-74	-18	-1.7	-10	-5
COc1ccc(NC(=O)Cc2c(O)c3ccccc3[nH]c2=O)cc1	2454	5	7	2	7.3	-3	-6
Next section.
SMILES	Bead autofluor	ugtP null kill	Mtb hypoxia inh	Mtb hypoxia inh growth	Sa RN4220 lethal	BJeLR viability	PrP 5UTR inh
N#Cc1cc2c(nc1SCC(N)=O)CCCCC2	2482	3	x	x	0.2	10	-42
CN(C(=O)COC(=O)c1n[nH]c(=O)c2ccccc12)c1ccccc1	3431	5	0	5	6.7	x	-13
CCCN(CCC)c1nc(-c2ccccn2)nc2ccccc12	3522	100*	x	x	99*	13	x
CSc1ccccc1NC(=O)CN(C)C(=O)Cc1c(F)cccc1Cl	3215	8	-1	5	1.2	-15	-33
N#CC(Cc1cccc(CC(C#N)(c2ccccc2)c2ccccc2)c1)(c1ccccc1)c1ccccc1	4298	6	0	-7	0.5	3	-7
O=C(Cc1ccc(Cl)cc1)N/N=C/c1cccs1	2441	x	x	x	x	0	-16
COc1ccc(NC(=O)COC(=O)c2ccc(S(=O)(=O)N(C)c3ccccc3OC)cc2)cc1OC	4465	3	14	1	1.4	2	17
CCC(C)c1ccc(OCC(=O)Nc2ccc3c(c2)C(=O)NC3=O)cc1 (stereo not given)	5007	x	x	x	x	1	-22
COc1ccc(CCNC(=O)CC2C(=O)NCCN2CC(C)(C)C)cc1 (stereo not given)	4584	-2	1	2	0.0	-8	-22
CC(=O)N1c2ccccc2C(C)=CC1(C)C	5699	7	5	0	4.3	5	-10
O=C1CN(C(=O)COC(=O)[C@@H]2CC(O)CN2S(=O)(=O)c2ccc(Cl)cc2)c2ccccc2N1 (stereo not given in full)	3616	7	7	5	0.8	x	-29
Cc1ccccc1-n1nnc2c(=O)oc3ccccc3c21	3144	-12	21	14	-12	-2	-5
Cc1ccc(C=NNC(=O)CSc2nnc(-c3ccc(Cl)cc3)n2-c2ccc(Cl)cc2)o1	x	4	2	0	9.2	x	x
CC1CCCC(C)N1N=Cc1ccccc1OC(F)F (stereo not given)	x	4	6	3	9.0	x	x
COc1cc(/C=C2/CCc3ccccc3C2=O)cc(OC)c1OC	7360	15	2	0	13	-1	5
Cc1ccc(N(CC(=O)NCc2ccc(F)cc2)C(=O)c2csnn2)cc1C	4275	5	9	4	-1.1	2	-60
COc1ccc(C(=O)Nc2ccc(Br)cc2F)cc1S(=O)(=O)N1CCCC1	5836	4	10	-4	0.8	x	-10
CC(C)(C)CC(C)(C)NC(=S)N1CCN(Cc2ccc3c(c2)OCO3)CC1	3204	0	20	-5	2.7	-7	-29
COc1cc2c(cc1NC(=O)C(C)Sc1nc3ccccc3n1C)oc1ccccc12 (stereo not given)	1938	2	-5	6	0.9	19	-11
N#Cc1ccc(OCC(=O)N(C2CCCCC2)C2CCS(=O)(=O)C2)cc1 (stereo not given)	5689	6	4	4	3.5	x	0
O=S1(=O)N[C@@H](CC2=CCCCC2)C2CCCCC2O1 (stereo not given in full)	3324	x	x	x	x	-11	-18
O=C(c1cc(-c2ccco2)nn1-c1cccc(Cl)c1)N1CCCCC1	2826	-1	x	x	0.8	4	4
CCCCCNCc1ccc(Cl)cc1	4202	5	19	5	7.4	2	-42
CC1CC(C)CN(S(=O)(=O)N2CCCC(C(=O)NCCCN3CCCCC3C)C2)C1 (stereo not given)	5870	6	5	0	-0.2	-3	-13
O=C(O)CSc1cc(C(F)(F)F)nc(-c2ccccn2)n1	6635	1	7	1	1.9	6	-4
CNC(=O)c1ccc(Oc2ccc(C(=O)NC)cc2)cc1	11833	2	6	13	1.7	-2	-34
O=C(C1CC(=O)N(C2CCCC2)C1)N1CCN(c2ccccc2)CC1 (stereo not given)	5021	0	11	9	2.3	10	2
O=C(O)c1ccc(NN=Cc2ccc(-c3cccc(Cl)c3)o2)cc1	x	49	7	0	78	x	x

By substructure, the compounds so far with a cyano group (5)
SMILES	Bead autofluor	ugtP null kill	Mtb hypoxia inh	Mtb hypoxia inh growth	Sa RN4220 lethal	BJeLR viability	PrP 5UTR inh
CCOC(=O)Cn1cc(/C=C(\C#N)C(=O)N2CCOCC2)c2ccccc21	4808	4	16	10	3.5	-5	-12
COc1ccc(C(=O)/C(C#N)=N/Nc2ccccc2[N+](=O)[O-])cc1	2354	x	x	x	x	37	-37
N#Cc1cc2c(nc1SCC(N)=O)CCCCC2	2482	3	x	x	0.2	10	-42
N#CC(Cc1cccc(CC(C#N)(c2ccccc2)c2ccccc2)c1)(c1ccccc1)c1ccccc1	4298	6	0	-7	0.5	3	-7
N#Cc1ccc(OCC(=O)N(C2CCCCC2)C2CCS(=O)(=O)C2)cc1 (stereo not given)	5689	6	4	4	3.5	x	0
